# High-throughput results: PubChem BioAssay, several laboratories
# RN4220 kill = S. aureus RN4220 growth inhibition; OD600, 16 h; inhibition, % (no concentration beside the values); hit rate 0.33% among 330,000;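 active = z-score of -3 or lower and OD600 up to 0.18 on both plates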;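 note: plate controls were untreated cells for no effect and reference antibiotic for full effect; stock transfer was 100 nL into about 80 µL; one replicate is shown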
# Bead autofluor = flagged as autofluorescent in microsphere protease counterscreen; compound autofluorescence counterscreen, microsphere flow cytometry; active compounds read high; fluorescence intensity (no concentration beside the values); hit rate 3.1% among 360,000; AID 624483;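 active = at least 3 SD above the mean of all compounds, about 16000 in these data; inconclusive = too few beads counted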;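 note: 100 nL of 1 mM stock went into each well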
# ugtP null kill = kills S. aureus RN4220 lacking UgtP; S. aureus RN4220 ugtP deletion, OD600 growth, 16 h; some inactives read as strong as hits; growth inhibition, % (test concentration not listed); hit rate 0.54% among 330,000;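 active = z-score under -3 and OD600 up to 0.15 on both plates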;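 note: plate controls were untreated wells for no effect and antibiotic for full effect; wells of about 80 µL received 100 nL stock; the first replicate is given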
# Mtb hypoxia inh = Mtb hypoxia fluorescent reporter inhibition | hit rate 0.1% among 300,000 | fluorescence inhibition, % (test concentration not listed) | M. tuberculosis hypoxia-regulated fluorescent reporter, fluorescence | AID 1159583;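 active = 35 to 45% if threefold the growth effect, above 45% if 1.5-fold the growth effect; inactive = the rest, general growth blockers included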;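 note: wells of about 50 µL received 100 nL stock; 0% = vehicle wells and 100% = reference inhibitor wells; whole bacteria with a GFP reporter of the hypoxia response; strong numbers were not always called active; many hits fall short of the cut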
# PrP UTR inh = inhibition of PrP 5' UTR reporter expression. AID 488862. cell-based PrP 5' UTR mRNA reporter, plate reader. hit rate 0.35% among 340,000. inhibition, % (no concentration beside the values);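 active = every replicate at 50% or more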;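 note: 0 = median of the neutral control wells; tested in H4 reporter cells; numbers are from one replicate; inactives centre near -14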
# BJeLR lethal = kills HRASV12-expressing BJeLR cells; BJeLR (HRASV12) viability, CellTiter-Glo ATP luminescence, 48 h; reference of the scale not given here; inhibition, % (test concentration not listed); hit rate 0.17% among 300,000;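 active = replicate mean above 50%; inconclusive = above 50% but judged a plate artefact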;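 note: 50 nL library stock added to about 25 µL; numbers are from one replicate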
# Mtb hypoxia inh growth = second read-out of Mtb hypoxia inh, no call of its own (marks repeat the call); growth inhibition, %; measured here: M. tuberculosis growth (absorbance);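 0% = vehicle and 100% = reference antibiotic; read after six days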
# Active calls of the source: *; ? = inconclusive; / = no result given; & = joins results of further samples.
SMILES,RN4220 kill,Bead autofluor,ugtP null kill,Mtb hypoxia inh,Mtb hypoxia inh growth,PrP UTR inh,BJeLR lethal
CCc1ccc(CN(C(=O)c2oc3ccccc3c2C)C2CCS(=O)(=O)C2)cc1 (stereo not given),1.3,5809,-9,4,4,-10,9
COc1cc(C(c2sc3ncnn3c2O)N2CCN(c3ccccc3F)CC2)cc(OC)c1OC (stereo not given),-6.2,5751,7,8,2,-17,-1
CCCCOc1ccc(-c2nc(/C=N/c3nccs3)c(O)o2)cc1,/,2546,/,/,/,-15,8
COc1ccc(OCC(=O)Nc2ccc3c(c2)C(=O)NC3=O)cc1,-0.3,5108,2,12,2,-12,0
NC(=O)COC(=O)c1sc2cc(F)ccc2c1Cl,27,4457,2,9,1,-7,5
C=CCN1C(=O)CS/C1=C(\C#N)S(=O)(=O)c1ccc(C)cc1,7.3,2570,3,/,/,-13,-9
CCSc1nc(N)nc2c1ncn2C1OC(CO)C(O)C1O (stereo not given),1.8,2982,3,10,2,-35,/
Cc1ccc(C(=O)N2CCCC(c3nc4c(nnn4Cc4ccccc4)c(=O)[nH]3)C2)cc1 (stereo not given),2.8,7554,3,2,9,-52,/
CCOc1ccc(-c2nc(CSCC(=O)NCCN3CCOCC3)c(C)o2)cc1,1.9,3062,2,7,7,-4,3
CSc1cccc(-n2cc(-c3ccc4c(c3)OCO4)[nH]c2=O)c1,11,6095,-7,0,8,-83,18
CC(C)OC(=O)CSc1nnc(C2CCCCC2)n1N,3.6,/,11,5,3,-82,6
Cc1nc(NCCN2CCOCC2)c2nnn(Cc3c(F)cccc3Cl)c2n1,1.6,4244,-3,-3,-11,-2,1
NCCc1nc2ccccc2s1,1.7,7632,4,-2,3,-7,9
O=S(=O)(c1ccc(F)c(F)c1)N1CCN(S(=O)(=O)c2cccs2)CC1,5.4,5528,3,-2,0,-24,-12
CCc1cc(C(=O)NN=Cc2ccc(O)cc2)c2ccccc2n1,0.2,/,3,-5,-4,/,/
CCOC(=O)c1cn(CC)c2cc(N3CCCCC3)c(F)cc2c1=O,3.0,3520,5,/,/,-1,0
COc1cc(C=Nn2cnc3c(sc4nc(C)cc(C)c43)c2=O)ccc1O,4.2,/,5,-5,7,/,/
CC(C(=O)Nc1ccncc1)(c1ccccc1)c1ccccc1,3.1,2465,6,13,6,-19,-6
O=C(CCc1nnc(Cc2ccc(-c3ccccc3)cc2)o1)NCC1CC1,3.8,3372,1,11,9,-12,-23
CCC(=O)n1nc(-c2ccc(OC)cc2)nc1NCc1cccs1,0.7,3749,15,2,3,-60,8
Cc1cccc(C)c1NC(=O)CS(=O)CC(=O)Nc1ccc(N2CCOCC2)cc1 (stereo not given),3.3,4312,7,0,-2,-18,1
Cc1csc(NC(=O)CSc2nc3ccccc3c3c2CCCC3)n1,2.1,2554,7,4,3,-21,/
CCOc1ccc(NC(=O)CN(C)C(=O)CCCOc2ccc(Br)cc2)cc1OCC,-1.8,4545,-2,10,-1,-30,-3
Cc1ccc(CN2C(=O)C(=O)c3cc(C)ccc32)cc1,12,3684,-7,6,13,4,/
COc1cc(C(=S)N2CCOCC2)ccc1OC(=O)/C=C/c1ccco1,14,3201,3,0,4,0,2

# Of the compounds above, these have two or more sulfur atoms.
SMILES,RN4220 kill,Bead autofluor,ugtP null kill,Mtb hypoxia inh,Mtb hypoxia inh growth,PrP UTR inh,BJeLR lethal
C=CCN1C(=O)CS/C1=C(\C#N)S(=O)(=O)c1ccc(C)cc1,7.3,2570,3,/,/,-13,-9
O=S(=O)(c1ccc(F)c(F)c1)N1CCN(S(=O)(=O)c2cccs2)CC1,5.4,5528,3,-2,0,-24,-12
Cc1csc(NC(=O)CSc2nc3ccccc3c3c2CCCC3)n1,2.1,2554,7,4,3,-21,/

# Pulled one by one from above, two records:
SMILES,RN4220 kill,Bead autofluor,ugtP null kill,Mtb hypoxia inh,Mtb hypoxia inh growth,PrP UTR inh,BJeLR lethal
COc1cc(C(=S)N2CCOCC2)ccc1OC(=O)/C=C/c1ccco1,14,3201,3,0,4,0,2
NC(=O)COC(=O)c1sc2cc(F)ccc2c1Cl,27,4457,2,9,1,-7,5

# Look-ups from the list.
# Mtb hypoxia inh growth, `CCOc1ccc(-c2nc(CSCC(=O)NCCN3CCOCC3)c(C)o2)cc1` : 7
# ugtP null kill, `CC(C(=O)Nc1ccncc1)(c1ccccc1)c1ccccc1` : 6

# The list goes on.
SMILES,RN4220 kill,Bead autofluor,ugtP null kill,Mtb hypoxia inh,Mtb hypoxia inh growth,PrP UTR inh,BJeLR lethal
CC(C)(CNCC(O)c1ccccc1)N1CCOCC1 (stereo not given),1.8,3623,17,/,/,-13,1
Cc1cccc(N2CCN(C(=O)C34CC5CC(CC(C5)C3)C4)CC2)c1C,-0.6,3144,-1,/,/,-16,5
O=C1CN(c2cc(Cl)cc(Cl)c2)C(=O)CN1N=Cc1cccnc1,-3.6,/,3,-4,11,/,/
O=C(CNC(=O)c1cccs1)OCC(=O)c1ccc(Cl)cc1,4.4,2574,11,3,-2,-45,3
Cc1cc(C)nc(SCC2COc3ccccc3O2)n1 (stereo not given),/,3308,/,/,/,-26,-8
O=C(CSc1nnc2ccccn12)NC(=O)c1ccccc1,0.9,5620,2,1,1,-17,/
O=C(Nc1ccccc1C1CC1)c1cccs1,4.8,3384,7,9,12,-10,-10
CCOC(=O)c1ccc(NC(=O)NCCc2ccccc2OC)cc1,-4.0,4238,15,-1,10,3,-2
O=C(Nc1ccc2c(c1)OCO2)C1CCN(S(=O)(=O)Cc2ccccc2)CC1,-2.5,3711,3,6,2,-15,-5
Cc1c(-c2ccccc2)nc2ccccc2c1C(=O)NCc1cccs1,-3.4,2230,0,0,-10,-29,0
O=C(COC(=O)C1CC2CCCC(C1)C2=O)Nc1ccc(F)c(Cl)c1 (stereo not given),4.1,4134,9,22*,52*,-15,/
COc1cc2oc(-c3ccc(O)cc3)cc(=O)c2c(OC)c1O,/,3386,/,/,/,-18,11
CCn1c(SCC(=O)Nc2ccccc2Br)nnc1-c1cnccn1,2.1,5985,4,4,3,-13,5
COCCN1C(=O)/C(=C/c2cc3c(cc2Br)OCO3)NC1=S,5.8,4633,-1,-5,-3,-25,0
Cc1nc2sccn2c(=O)c1Br,-1.5,2330,3,-4,-10,-5,-4
C=CC[C@@H](CC(=O)N[C@@H](CO)Cc1ccccc1)C(=O)N[C@H](COC(=O)[C@@H](CC=C)CC(=O)OC(C)(C)C)Cc1ccccc1,3.0,3385,-11,-13,-7,-9,/
CCCCC(CC)CNC(=O)C1CCCN(S(=O)(=O)c2cnc[nH]2)C1 (stereo not given),2.3,6003,-11,/,/,-12,-6
O=C1NC(Cc2cn(S(=O)(=O)c3ccccc3)c3ccccc23)C(=O)NC1Cc1ccccc1 (stereo not given),5.8&8.6,/,7&-5,-1&9,9&18,/,/
COc1ccc(NC(=O)CN(c2ccc(C(C)C)cc2)S(=O)(=O)c2c(C)noc2C)cc1OC,2.9,3883,7,/,/,3,5
O=C(NC(=O)N1CCCc2ccccc21)c1ccccc1,1.3,2963,6,11,4,-10,-3
Cc1cc(NC(=O)CSc2nc3c(c(=O)n2-c2ccc(Br)cc2)SCC3)no1,3.7,10036,27,-3,5,-2,-3
CCc1c(C)sc(NC(=O)c2cccs2)c1C#N,2.6,2436,-5,1,2,-58,0
O=C(OCC(CO)OC(CO)n1ccc(=O)[nH]c1=O)c1ccccc1 (stereo not given),-0.2,2616,1,/,/,2,17
O=C(CSc1nc2cc(Cl)ccc2o1)c1cccs1,15,2563,-20,14,17,-7,-4
O=C(CCN1C(=O)c2ccccc2C1=O)N1CCC(c2ccccc2)C1 (stereo not given),4.4,6413,7,1,2,-20,-9
# New compounds follow:
SMILES,RN4220 kill,Bead autofluor,ugtP null kill,Mtb hypoxia inh,Mtb hypoxia inh growth,PrP UTR inh,BJeLR lethal
Cc1cc(C2=NNC(=NC3CC3)SC2)c(C)n1-c1c(C)n(C)n(-c2ccccc2)c1=O,-4.9,1979,-11,1,-2,-7,-2
CS(=O)(=O)N(Cc1ccccc1)c1ccccc1C(=O)O,-13,3715,-6,21,14,-29,9
COC(=O)c1cc(S(=O)(=O)NCC2CCN(Cc3cc(C)ccc3C)CC2)c[nH]1,2.1,5823,1,7,6,-16,10
CCOC(=O)COc1cccc2c(=O)n(CC(=O)NCc3ccc(F)cc3)ccc12,-0.9,?,-3,-7,-8,60*,22
O=C(Cc1ccc(Br)cc1)NCCN1CCOCC1,1.7,4393,9,10,-2,-7,5
Cc1c(C=NNC(N)=O)c2ccccn2c1C(=O)c1ccncc1,4.3,/,4,12,4,/,/
CCOc1ccc(N=Cc2c(O)n(C(C)(C)C)c(=O)[nH]c2=O)cc1,4.9,23346*,-14,8,9,-16,-2
Cc1ccc(NC(=O)CN2C(=O)C3C4C=CC(C4)C3C2=O)cc1 (stereo not given),12,3413,9,0,2,-16,3
CCOC(=O)c1nn(-c2ccccc2C)c2nc(-c3ccc(Cl)cc3)c(C#N)c(=O)n12,3.1,2566,-7,5,6,-16,6
CCC1=NN(C(=O)c2ccc(Br)cc2)C(O)(c2ccc(C)cc2)C1 (stereo not given),1.3,2301,-4,-2,5,2,24
O=C(/C=C/c1ccccc1)NCCN1CCOCC1,4.3,2117,1,2,1,-13,-8
O=C(c1ccccc1)N1CCCC(C(=O)N2CCCCC2)C1 (stereo not given),2.8,4798,3,4,5,-2,10
CC1CN(C(C)CO)C(=O)c2cc(NC(=O)CCC(F)(F)F)ccc2OC1CN(C)C(=O)NC1CCCCC1 (stereo not given),2.2,/,-8,12,9,/,/
O=C(Nc1ccc(Br)cc1F)C1CCCN(S(=O)(=O)c2cnc[nH]2)C1 (stereo not given),-1.9,4011,-4,/,/,-10,-1
COC(=O)c1cc(C(=O)c2ccc(Cl)cc2)n2c(=O)/c(=C\N(C)C)sc12,/,3322,/,/,/,13,-1
Cc1ccc(CNC(=O)CS(=O)Cc2nc(-c3cccs3)oc2C)cc1 (stereo not given),17,4542,8,-3,12,-9,-5
Cc1ccc(S(=O)(=O)N2CCN(Cc3ccco3)CC2)c(C)c1,/,4138,/,/,/,-4,-10
CCOc1ccc(-c2nc(CSCC(=O)NCCCN3CCCC3=O)c(C)o2)cc1,-1.0,4993,0,1,-3,-15,7
Cc1ccccc1OCCCC(=O)Nc1ccc(N2CCOCC2)cc1,4.1,6411,10,4,0,-11,-13
O=C(Cn1ncc(Cl)c(Cl)c1=O)N1CCOCC1,2.1,3487,0,5,16,-24,-4
COc1ccc(C(=O)NCCCn2ccnc2)cc1,-1.2,4110,5,15,11,-24,-16
O=C1CCCc2nn(-c3ccccc3)c(-c3ccncc3)c21,2.9,2495,-2,15,12,-15,-3
Cc1cc(NC(=O)CSc2nnc(-c3ccccc3)o2)no1,17,6895,7,-8,-13,-3,-9
O=C(CN1CCOCC1)Nc1nc(-c2ccccc2Cl)cs1,-0.3,2951,6,3,-7,8,8
O=C(NNC(=O)C1CCN(S(=O)(=O)c2ccc(Cl)cc2)CC1)c1ccccc1,8.6,9644,5,-6,0,6,4
# Other structures.
SMILES,RN4220 kill,Bead autofluor,ugtP null kill,Mtb hypoxia inh,Mtb hypoxia inh growth,PrP UTR inh,BJeLR lethal
O=C(CSc1ccc2ccccc2n1)NCCCN1CCCC1=O,3.7,3330,3,13,7,12,/
CCCc1nnc(NC(=O)c2c(O)c3cccc4c3n(c2=O)CC4)s1,101*,/,100*,56*,30*,/,-3
CCN(CC)C(=O)c1sc(NC(=O)c2ccc(OC)c([N+](=O)[O-])c2)c(C#N)c1C,0.0,/,5,2,-13,/,-11
Cc1nn(C)cc1S(=O)(=O)Nc1ccc2c(c1)OCCO2,1.1,?,3,4,-6,3,4
Cc1ccc(C(=O)NC(=S)Nc2cccc3nsnc23)cc1,-2.5,3086,-20,8,9,-31,7
COC(=O)c1cc(S(=O)(=O)NCCN2CCOCC2)cn1C,1.8,5182,6,11,7,-14,-9
Cc1nc(-c2ccc(F)cc2)c(CC(=O)Nc2cccc(S(=O)(=O)N3CCOCC3)c2)s1,0.1,?,0,-1,8,-24,7
COc1cccc(NC(=O)CN(C)C(=O)/C=C/c2cn(Cc3ccccc3)nc2-c2cccnc2)c1,1.1,?,-1,4,2,-7,-6
Nc1nnc(SCCCC(=O)c2ccccc2)s1,-0.8,1994,11,-12,4,-10,-3
CCN1CCCC1CNC(=O)Cn1nc(C)n2c(cc3cc(F)ccc32)c1=O (stereo not given),4.8,4302,13,4,-4,-2,-4
CCOC(=O)c1cc(-c2ccccc2)sc1NC(=O)C(C)C,1.4,2204,-3,-5,-4,-13,-10
CC(C)c1nnc(SCC(=O)NC(C)(C)C)n1C,-0.3,3488,-1,11,0,-11,1
